NS1 inh: inhibitors of influenza NS1 protein function. S. cerevisiae slowed by influenza A NS1, growth recovery by OD600. Potency, µM (titrated, usually from 46.1 µM), for inactives: top-dose activity, positive = more growth. hit rate 0.4% among 270,000. AID 2326; active means well fitted rising curve with a large enough effect; inconclusive means small, poorly fitted or top-dose-only effect; inactive means no such curve, though single readings can be large or run the other way; also: nearly all actives have a fitted effect of over 50% in size
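Read-out: OD600 growth recovery of NS1-expressing budding yeast. Cells grown overnight at 30C in -URA glucose medium, washed, resuspended and diluted 1:100 in 2% galactose assay medium, pH 6.0. Same strain lacking NS1 served as positive control.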
Cruzain inh noDet: inhibitors of Trypanosoma cruzi cruzain without detergent. P25779. purified cruzain, Z-FR-AMC fluorescence, no detergent. Potency, µM, inactives show max response, negative = inhibition, most hits filed as inhibitors. hit rate 2.3% among 200,000;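 also: plate controls were enzyme without inhibitor for no effect and buffer without enzyme for full effect; nearly all actives have a fitted effect of over 40% in size; top concentration of the series not given in the record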
Target sequence (P25779 123-467 limits assumed): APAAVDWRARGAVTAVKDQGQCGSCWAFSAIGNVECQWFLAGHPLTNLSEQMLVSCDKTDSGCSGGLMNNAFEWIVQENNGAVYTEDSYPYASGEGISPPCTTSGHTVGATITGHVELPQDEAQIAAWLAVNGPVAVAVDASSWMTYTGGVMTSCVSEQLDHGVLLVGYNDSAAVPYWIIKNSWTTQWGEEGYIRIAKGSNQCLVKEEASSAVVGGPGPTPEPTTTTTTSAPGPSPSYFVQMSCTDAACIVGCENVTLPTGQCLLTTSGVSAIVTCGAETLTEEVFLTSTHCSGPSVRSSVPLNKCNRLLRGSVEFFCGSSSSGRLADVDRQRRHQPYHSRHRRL
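Purified cruzain at 1.5 nM, pre-incubated 15 min with compound at room temperature in 100 mM sodium acetate pH 5.5, 5 mM DTT, 0.00005% Triton X-100. Reaction started with 2 uM Z-FR-AMC; AMC fluorescence increase over 60 s gives rate.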
Cruzain Triton: cruzain (T. cruzi) inhibition with detergent. P25779. purified cruzain, Z-FR-AMC fluorescence, 0.01% Triton. Potency, µM, for inactives: max response, negative = inhibition, most hits filed as inhibitors. hit rate 0.43% among 200,000;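 also: plate controls were neutral wells for no effect and buffer without enzyme for full effect; nearly all actives have a fitted effect of over 40% in size; top concentration of the series not given in the record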
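Detergent-containing arm of a paired screen for aggregation-based inhibition: 0.01% Triton X-100 present. Cruzain at 1.5 nM cleaved 2 uM Z-FR-AMC at pH 5.5 with 5 mM DTT; AMC fluorescence gain over 60 s measured activity.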
* hit, by the source's call; ? = inconclusive; nt = not tested or not shown. Unless noted, calls follow the shape of the dose curve; as a rule, active = well fitted curve in the direction sought with a large enough effect; inconclusive = small, poorly fitted or top-dose-only effect, or another doubt; inactive = no such curve, though single readings can be large; an effect the other way counts as inactive or inconclusive. Potency is read from the fitted curve at half-maximal effect. Not all compounds are listed. The share of hits here may be higher or lower than overall.

SMILES | NS1 inh | Cruzain inh noDet | Cruzain Triton
CCCCC[C@@H](/C=C/C=C\CCCCCCCCCC(=O)O)OO | nt | -17.0% | -2.0%
CCC/C=C(\CCC)C(NS(=O)(=O)c1ccc(Cl)cc1)c1ccc(C(=O)OC)cc1 (stereo not given) | nt | -28.7% | -7.0%
NC(N)=NCCC[C@H](NC(=O)CC1(CC(=O)N2CCN(C3c4ccccc4NC(=O)c4ccccc43)CC2)CCCC1)C(=O)NCCn1c(=O)n(-c2ccccc2)n(-c2ccccc2)c1=O (stereo not given in full) | nt | 4.1% | -3.2%
CC(C)c1cccc2c([Si](C)(C)C)c3c(nc12)-c1cccc(=O)n1C3 | nt | ? | -14.2%
C[C@]12C/C(=C/O)C(=O)C[C@@H]1CC[C@@H]1[C@@H]2CC[C@@]2(C)[C@H]1CC[C@]2(C)O | nt | 7.6% | 0.3%
C[C@H]1CC[C@@]2(NC1)O[C@@H]1C[C@H]3[C@@H]4CC[C@@H]5C[C@@H](O)CC[C@@]5(C)[C@@H]4CC[C@]3(C)[C@@H]1[C@@H]2C | nt | -7.0% | -1.8%
OCC1O[C@H](OC2C(CO)O[C@@](O)(CO)C2O)C(O)C(O)C1O (stereo not given in full) | nt | -2.7% | 4.8%
CC1=CC[C@@H]2[C@@H](C1)c1c(O)cc(CC#CCCCNS(C)(=O)=O)cc1OC2(C)C | nt | ? | -18.8%
CSSC | nt | -4.8% | 0.7%
C=C(CO)C1Cc2c(ccc3c2OC2COc4cc(OC)c(OC)cc4C2C3=O)O1 (stereo not given) | nt | ? | -6.1%
CC(=O)OC1CCC2(C)C(CCC3(C)C2C(=O)C=C2C4CC(C)(C(=O)OCCN5CCCCC5)CCC4(C)CCC23C)C1(C)C (stereo not given) | nt | -1.4% | 0.3%
C[C@H]1C(=O)O[C@@H]2CCN3CC=C(COC(=O)[C@@](C)(O)[C@@]1(C)O)[C@H]23 | nt | -3.0% | 2.5%
COc1cccc(CS(=O)(=O)c2ccccc2)c1 | nt | 0.7% | 5.2%
C=C1c2cccc(OC)c2O[C@H](C(=O)OCC)[C@@H]1CCC(C)C | nt | ? | 0.5%
CC[C@H](c1ccc(O)cc1)[C@@H](CC)c1ccc(O)cc1 | nt | -1.4% | -10.7%
COC(=O)[C@@]1(C)C[C@@H]1[C@@H](NC(=O)[C@@]1(C)C[C@@H]1[C@@H](NC(=O)[C@@]1(C)C[C@@H]1[C@@H](NC(=O)[C@@]1(C)C[C@@H]1[C@@H](NC(=O)OCc1ccccc1)c1ccccc1)c1ccccc1)c1ccccc1)c1ccccc1 | nt | ? | -1.2%
CCCCCOC(=O)c1ccccc1C(=O)OCCCCC | nt | 8.8% | -3.5%
COC(=O)[C@@]1(Cc2ccc(OC)cc2)[C@H]2c3cc(C(=O)N4CCCC4)n(CCCNc4ncc(C(F)(F)F)cc4Cl)c3C[C@H]2CN1C(=O)c1ccccc1 | nt | 7.8% | -2.7%
C#C[C@]1(OC(C)=O)CC[C@H]2[C@@H]3CCC4=CC(=O)CC[C@@H]4[C@H]3CC[C@@]21C | nt | 6.3% | -0.9%
C=CC1CO1 (stereo not given) | nt | -5.9% | 4.0%
CC(=O)O[C@@H](C)C#C[Si](C)(C)c1ccccc1 | nt | -2.4% | 1.6%
CCCCC=O | nt | -0.2% | -3.3%
CSCCC(N)C(=O)O (stereo not given) | nt | 0.1% | -3.3%
Nc1ncnc2c1ncn2[C@H]1O[C@@H](C(=O)O)[C@@H](O)[C@H]1O | -10.0% | 7.4% | 1.1%
CN(/N=C\c1ccccc1O)c1ccc2ccccc2n1 | -12.5% | -0.7% | 3.5%
S=C1SCN(C2CCCCCCCCCCC2)CN1C1CCCCCCCCCCC1 | -5.6% | 5.9% | -4.4%
COc1cc(-c2[o+]c3cc(O)cc(O)c3cc2O)cc(O)c1O | 2.6% | -6.7% | -1.3%
Nc1nc(SCC(=O)O)[nH]c(=O)c1N | -3.1% | 3.8% | 6.2%
CN[C@@H]1NC(=O)c2ccccc2N1Cc1ccc(F)cc1 | -4.5% | -0.7% | 14.1%
CC(CC(=O)O)(CC(=O)O)c1ccccc1 | 6.2% | -1.6% | 1.8%
N#CNC(N)=Nc1ccc(Cl)cc1 | -11.8% | -7.2% | -0.1%
O=C(O)NCC1CCCCC1 (tested in a mixture with another compound) | -5.2% | -9.6% | 2.1%
N=C1[C@@H](O)[C@]2(I)c3ccccc3N3C(=N)[C@H](O)[C@@H]4c5ccccc5N1[C@@H]4[C@@H]32 | -0.1% | -1.2% | -3.0%
COc1c(O)ccc2c1CN1CCc3cc4c(cc3[C@@H]1C2)OCO4 | 1.0% | 0.0% | 1.2%
CC1(C)CCC(=O)N[C@H]1CC(=O)C[C@H]1NC(=O)CCC1(C)C | 0.0% | 6.6% | -1.8%
O=C(O)c1cccc(CN2CCCCC2)c1 | 0.7% | 1.9% | -1.0%

No new results follow: two of the compounds above.
SMILES | NS1 inh | Cruzain inh noDet | Cruzain Triton
COc1c(O)ccc2c1CN1CCc3cc4c(cc3[C@@H]1C2)OCO4 | 1.0% | 0.0% | 1.2%
CC1(C)CCC(=O)N[C@H]1CC(=O)C[C@H]1NC(=O)CCC1(C)C | 0.0% | 6.6% | -1.8%

Next entries:
SMILES | NS1 inh | Cruzain inh noDet | Cruzain Triton
COc1ccc2nccc(SCC(=O)O)c2c1 | 0.0% | 10.4% | 0.0%
N[C@@H](Cc1c[nH]c2ccc([N+](=O)[O-])cc12)C(=O)O | -5.6% | -9.9% | 1.9%
c1ccc(CCN2CCOCC2)nc1 | -2.8% | 6.6% | -0.2%
Nc1nc2c(ncn2[C@@H]2O[C@H](CO)[C@@H](O)[C@@H]2O)c(=[SH+])[nH]1.O=[N+]([O-])c1ccc(O)[c]([Hg])c1 | -5.6% | -1.8% | -0.3%
C1C[C@@H]2CN(CCCN3CCOCC3)[C@@H](C1)O2 | -2.8% | -1.7% | 3.0%
Oc1ccc2ccccc2c1/C=C\c1ccc2c(Br)cc(Br)c(O)c2n1 | -43.0% | 3.16µM* | 1.3%
CCC(=O)OCN1C(=O)C=CC1=O | -18.1% | -1.5% | 1.0%
C=C[C@@H]1CN2CC[C@H]1CC2[C@H](O)c1ccnc2ccccc12 (stereo not given in full) | -4.1% | -2.8% | 4.5%
O=C(O)C(=Cc1ccc(-c2ccccc2)cc1)C(=O)O | -12.8% | 2.9% | 7.0%
NC(N)=NC(N)=Nc1ccc(S(=O)(=O)O)cc1 | -3.5% | 5.2% | 1.5%
COc1cc2ccccc2c2cc([N+](=O)[O-])oc12 | -26.3% | -6.0% | -0.3%
Br/C(=N\Nc1nn[nH]n1)c1ccncc1 | -1.4% | 13.1% | 1.6%

An excerpt from above in order of length of the SMILES, descending:
SMILES | NS1 inh | Cruzain inh noDet | Cruzain Triton
Nc1nc2c(ncn2[C@@H]2O[C@H](CO)[C@@H](O)[C@@H]2O)c(=[SH+])[nH]1.O=[N+]([O-])c1ccc(O)[c]([Hg])c1 | -5.6% | -1.8% | -0.3%
N=C1[C@@H](O)[C@]2(I)c3ccccc3N3C(=N)[C@H](O)[C@@H]4c5ccccc5N1[C@@H]4[C@@H]32 | -0.1% | -1.2% | -3.0%
CC1(C)CCC(=O)N[C@H]1CC(=O)C[C@H]1NC(=O)CCC1(C)C | 0.0% | 6.6% | -1.8%
N[C@@H](Cc1c[nH]c2ccc([N+](=O)[O-])cc12)C(=O)O | -5.6% | -9.9% | 1.9%
Oc1ccc2ccccc2c1/C=C\c1ccc2c(Br)cc(Br)c(O)c2n1 | -43.0% | 3.16µM* | 1.3%
COc1c(O)ccc2c1CN1CCc3cc4c(cc3[C@@H]1C2)OCO4 | 1.0% | 0.0% | 1.2%
C1C[C@@H]2CN(CCCN3CCOCC3)[C@@H](C1)O2 | -2.8% | -1.7% | 3.0%
O=C(O)C(=Cc1ccc(-c2ccccc2)cc1)C(=O)O | -12.8% | 2.9% | 7.0%
COc1cc2ccccc2c2cc([N+](=O)[O-])oc12 | -26.3% | -6.0% | -0.3%
COc1ccc2nccc(SCC(=O)O)c2c1 | 0.0% | 10.4% | 0.0%
O=C(O)c1cccc(CN2CCCCC2)c1 | 0.7% | 1.9% | -1.0%
CCC(=O)OCN1C(=O)C=CC1=O | -18.1% | -1.5% | 1.0%
N#CNC(N)=Nc1ccc(Cl)cc1 | -11.8% | -7.2% | -0.1%
c1ccc(CCN2CCOCC2)nc1 | -2.8% | 6.6% | -0.2%
O=C(O)NCC1CCCCC1 (tested in a mixture with another compound) | -5.2% | -9.6% | 2.1%

The listing continues.
SMILES | NS1 inh | Cruzain inh noDet | Cruzain Triton
O=C(O)/C(Cc1cn[nH]n1)=N\O | -6.6% | 6.5% | -1.9%
Cc1cc(C2(c3cc(C)c(O)c(C(=O)O)c3)OS(=O)(=O)c3ccccc32)cc(C(=O)O)c1O | -5.6% | 3.9% | -6.9%
Oc1ccc2ccccc2c1C=NCc1c(O)ccc2ccccc12 | -0.7% | -27.3% | -4.3%
Nc1nc(-c2cccnc2)cc(-c2cc(-c3cccnc3)nc(N)n2)n1 | -3.1% | 4.2% | -0.6%
O=C(O)c1c(-c2nccc3ccccc23)[nH]c(-c2ccccc2)c1S(=O)(=O)O | -6.6% | 9.8% | 7.9%
O=C(O)c1ccc(/C=N\N=C2c3ccccc3-c3ccccc32)cc1 | -25.3% | -6.4% | 0.1%
NCS(=O)(=O)O | -3.1% | 5.9% | 4.3%
C[C@@H]1Oc2ccc(C(=O)C[C@@H](C(=O)O)c3ccc4c(c3)OCO4)cc2O1 | -3.1% | -1.0% | -0.8%
CCO[P@]1(=O)OC[C@@H]2O[C@H](n3cnc4c(N)ncnc43)[C@H](O)[C@@H]2O1 | -7.7% | -4.5% | 2.1%
CC[N+](C)(CC)CCN1C(=O)c2ccccc2S1(=O)=O | -2.6% | 4.6% | 4.0%
CN(C)CN1CSC(=S)N(CN(C)C)C1 | -14.9% | 11.2% | 3.0%
CCCCC[CH2][Hg][S]C1=C2N=CNC2NC(N)=N1 (stereo not given) | -65.2% | -6.0% | -3.0%
COC(=O)CC[C@@H](C)[C@@H]1CC[C@@H]2[C@@H]3CC[C@H]4C[C@@H](O)CC[C@@]4(C)[C@@H]3CC[C@]21C | -4.0% | -5.2% | 5.5%
NC(=O)N/N=C1\CC[C@H](O)C[C@@H]1CC(=O)O | 0.4% | 7.8% | 5.5%
O=C(O)c1ccc(CNCc2ccccc2)cc1 | -1.0% | 2.7% | 1.9%
O=C(O)c1c(-c2c3ccc(=O)cc-3oc3cc(O)ccc23)cc2ccccc2c1-c1ccccc1 | -5.5% | 2.9% | 2.9%
O=C(O)CSC1=NCCN1 | -3.5% | 0.0% | 7.8%
CN1CCN(CN2C(=O)C3C4C=CC(C3C2=O)C2C3C(=O)N(CN5CCN(C)CC5)C(=O)C3C42)CC1 (stereo not given) | -13.2% | -3.8% | 4.2%
CN(C)CCNCCN | 0.3% | -6.9% | 1.0%
O=C(O)C[n+]1ccccc1 | 8.3% | 4.5% | 11.2%
CC[C@@]1([N+](=O)[O-])C[C@H]2C=C[C@@H]1C2 | -6.6% | 2.3% | 2.0%
O=C1[C@@H]2[C@@H](C(=O)N1c1ccc(OCc3ccccc3)cc1)[C@@H]1c3ccccc3[C@@H]2[n+]2ccccc21 | 10.3% | -5.6% | 0.9%
c1ccc([P+](CC[P+](c2ccccc2)(c2ccccc2)c2ccccc2)(c2ccccc2)c2ccccc2)cc1 | -5.4% | -0.6% | 1.9%
N=C(N)SCc1cccc(-c2nc3ccccc3c(=O)o2)c1 | -0.3% | 0.6% | 2.0%
CC(C)C(=O)C(C)(C)CCc1ccccn1 | 0.3% | 6.6% | 3.3%
O=C(O)CN1CCN(CC(=O)O)CC(=O)[O][Hg][O]C(=O)C1 | -61.3% | 3.5% | 13.8%
O=C(C[C@@H]1C=Cc2ccccc2N1C(=O)c1ccccc1)c1ccccc1 | -4.6% | 0.6% | 4.2%
O=C(O)CCC(=O)Nc1ccc2ccccc2c1 | 1.8% | -6.7% | 1.7%
Oc1ccc(CNCc2ccccc2)c2cccnc12 | 0.0% | -1.8% | -3.1%
NC(=O)SCC(=O)Nc1ccc2ncccc2c1 | 8.7% | 6.6% | -2.4%
c1ccc(CN2CCC3(CC2)SSC2(CCN(Cc4ccccc4)CC2)SS3)cc1 | -2.6% | -0.5% | 1.2%
CC1=NN(c2ccccc2)C(=O)[C@@H]1N=Nc1ccc([As](=O)(O)O)c(O)c1 | 5.4% | -9.4% | -1.1%

From PubChem
